# Screens as filed in PubChem BioAssay.
# GALR2 ag – GALR2 receptor agonists, primary screen, cell-based; Galanin receptor type 2 (Homo sapiens), O43603; GALR2-expressing cells, agonist activation read-out; activation, %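 (tested at 5 µM)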; actives 0.48% (n = 140,000); AID 803, 2007;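 active = above mean plus 3 SD of all compounds, about 5% in these data, not always enough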;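 note: 0% = vehicle buffer wells and 100% = reference agonist at full effect; tested in CHO reporter cells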
# Target sequence (O43603 whole entry, looked up): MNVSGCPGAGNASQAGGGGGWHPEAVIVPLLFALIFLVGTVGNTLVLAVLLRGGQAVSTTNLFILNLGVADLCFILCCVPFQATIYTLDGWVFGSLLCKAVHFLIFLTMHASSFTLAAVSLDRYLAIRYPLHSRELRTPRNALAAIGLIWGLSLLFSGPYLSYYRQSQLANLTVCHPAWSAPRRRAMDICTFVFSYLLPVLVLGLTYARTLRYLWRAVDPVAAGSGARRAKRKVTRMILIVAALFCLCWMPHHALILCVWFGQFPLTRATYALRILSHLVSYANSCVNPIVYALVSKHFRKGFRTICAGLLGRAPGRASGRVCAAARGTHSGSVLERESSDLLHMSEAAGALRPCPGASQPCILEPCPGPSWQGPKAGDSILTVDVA
# HSV augment – enhancers of HSV replication in host cells, fold increase, host cell viability; HSV replication augmentation in cells; maximum fold increase; actives 0.005% (n = 220,000); AID 1956, 2009;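 active = peak rise of 1.5-fold or more in the series; inconclusive = self-fluorescent or not available for retest; tested in PC3 cells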;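 note: first round at 10 µM; read as green reporter fluorescence; hits show the peak of a series up to 25 µM; 1 = signal of infected wells without compound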
# RGS16-Gao HTS – modulators of RGS16 binding to Galphao, primary screen, biochemical, human proteins, multiplexed bead flow cytometry; bead-based flow cytometry RGS16-Galphao binding, fluorescence; actives lie on both sides; AID 1441, 2008; Regulator of G-protein signaling 16 (Homo sapiens) + Guanine nucleotide-binding protein …; actives 0.38% (n = 220,000); binding response (% of control), % at 10 µM;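 active = below 25% or above 175%, edge rows of some plates excepted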;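 note: Galphao activated by GDP with aluminum fluoride before binding; 100% = wells without compound and 0% = beads without RGS; some results beyond the cut were filed as inactive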
# Target sequence (O15492 whole entry, looked up): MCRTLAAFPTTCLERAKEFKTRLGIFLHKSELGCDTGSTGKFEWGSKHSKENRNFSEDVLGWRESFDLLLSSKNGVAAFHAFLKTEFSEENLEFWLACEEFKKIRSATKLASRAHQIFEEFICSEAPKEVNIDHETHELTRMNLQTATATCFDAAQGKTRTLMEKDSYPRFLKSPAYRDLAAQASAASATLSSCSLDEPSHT
# Target sequence (P09471 whole entry, looked up): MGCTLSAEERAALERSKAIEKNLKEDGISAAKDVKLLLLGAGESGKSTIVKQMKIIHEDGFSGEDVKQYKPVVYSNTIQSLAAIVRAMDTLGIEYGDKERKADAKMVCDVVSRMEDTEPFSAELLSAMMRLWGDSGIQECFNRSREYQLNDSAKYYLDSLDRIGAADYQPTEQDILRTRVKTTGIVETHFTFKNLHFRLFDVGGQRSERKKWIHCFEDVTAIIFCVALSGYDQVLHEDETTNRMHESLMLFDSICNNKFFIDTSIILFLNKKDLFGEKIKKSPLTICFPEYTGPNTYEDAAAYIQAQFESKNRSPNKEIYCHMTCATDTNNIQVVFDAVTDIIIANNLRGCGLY
# PKD1 inh – inhibitors of human PKD1 kinase, biochemical, fluorescence polarization; Serine/threonine-protein kinase D1 (Homo sapiens), Q15139; PKD1 kinase fluorescence polarization assay; inhibition, %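 (about 10 µM by stock and volumes)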; actives 0.056% (n = 200,000); AID 797, 2007;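 active = inhibition of 50% or more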;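 note: controls were vehicle for no effect and a reference inhibitor for full effect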
# INS promoter inh – inhibitors of insulin promoter-driven GFP, primary screen, imaging, TRM-6 cells (human fetal islet line), eGFP reporter, cell count; reporter expression induced with tamoxifen; inhibition, % at 2 µM; actives 0.9% (n = 130,000);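 active = inhibition above the mean plus 3 SD, with well images judged a real hit on visual review, cut at about 60% in these data, passing the limit was not always enough; inconclusive = inhibition over the cutoff but images rejected on review; inactive = inhibition not above the cutoff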
# INS promoter inh cell count – recorded beside INS promoter inh, whose call it bears; normalized cell count, %; measured here: cell count, toxicity; reference of the scale not given here;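 cells exposed to compound for 48 h; stained nuclei by imaging scaled within each plate; lower means fewer cells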
# HSV augment primary fold – further read-out of HSV augment, marked with its call; fold increase; compound at 10 µM; measured here: primary screen fold increase 10 uM; tested in PC3 cells;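 GFP signal in the first replicate; 1 = infected wells without compound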
# * hit, by the source's call; i = inactive; ? = inconclusive; nt = no result given.
# Results follow in this order: GALR2 ag	HSV augment	HSV augment primary fold	RGS16-Gao HTS	PKD1 inh	INS promoter inh	INS promoter inh cell count
- COc1ccc(NC(=O)Nc2nc3ccccc3s2)cc1
    nt	i	0.94	95	nt	nt	nt
- COC(CNC(=O)c1cc(-c2ccncc2)nc2ccc(S(=O)(=O)N3CCOCC3)cc12)OC
    nt	i	0.99	101	5	0	112
- O=C(O)c1ccc(NC(=O)c2cn(-c3ccccc3)nc2-c2ccccc2)cc1
    nt	i	1	101	-12	nt	nt
- Fc1ccc(Br)cc1C1C=C(c2ccc(Br)s2)Nc2ncnn21 (stereo not drawn)
    -0.5	?	nt	96	-4	nt	nt
- COc1ccc(/C=N/NC(=O)c2c(C)nnn2-c2nonc2N)cc1OC
    nt	i	1.2	102	-2	nt	nt
- Cn1c(=O)c2c(ncn2CC(=O)Nc2cccc(S(=O)(=O)Nc3ccccc3F)c2)n(C)c1=O
    nt	i	0.97	83	1	nt	nt
- COc1ccccc1N1CCN(C(=O)Cc2c(C(=O)O)[nH]c3ccc(Cl)cc23)CC1
    nt	i	0.91	101	-1	nt	nt
- C=CCNc1nnc(SCC(=O)N2CCCCC2)c2ccccc12
    0.7	i	0.96	128	5	nt	nt
- O=C(c1cccs1)N(CC1CCCO1)c1nc(-c2ccccc2)cs1 (stereo not drawn)
    -2.6	i	0.86	101	-13	27	93
- Cn1nnc2cc(C(=O)NC(C)(C)C)ccc21
    -1.7	i	1.1	99	8	nt	nt
- CC1C(=O)NC(=O)C1c1ccccc1 (stereo not drawn)
    nt	i	1.3	94	nt	nt	nt
- NC(=O)c1cccc2ccccc12
    nt	i	0.78	99	nt	nt	nt
- Cc1cccc2c3c([nH]c12)C(=O)CC(C)(C)S3
    nt	i	0.86	104	-1	nt	nt
- O=C(CC1NCCc2ccccc21)Nc1ccc(Cl)cc1 (stereo not drawn)
    nt	i	0.96	106	0	nt	nt
- COc1ccc(-n2c(N)cc(=O)[nH]c2=O)cc1
    nt	i	1.1	103	nt	nt	nt
- CC(C)(C)c1ccc(C(=O)CSc2ncn[nH]2)cc1
    -1.5	i	0.98	98	0	-3	86
- O=C(c1ccco1)c1cn(CC(=O)N2CCCCC2)c2ccccc12
    -1.1	i	1.1	100	5	-50	80
- Cc1ccc(NC(=O)CS(=O)CC(=O)N(CC(=O)NC2CCCC2)c2cc(C)ccc2C)cc1 (stereo not drawn)
    -0.9	i	0.9	103	-6	-9	93
- O=C1CCN(S(=O)(=O)c2ccccc2)CCN1CCOCc1ccc(F)cc1
    nt	i	0.94	96	nt	nt	nt
- COc1cccc(-c2nc(C(N)=O)c3[nH]c(=O)n(-c4ccccc4)c3n2)c1OC
    0.7	i	1	106	-6	57	94
- Cc1[nH][nH]c(=O)c1N=Nc1ccccc1C#N
    nt	i	0.87	101	0	36	123
- O=c1cc(NC2CCCCC2)c2ccccc2o1
    -2.2	nt	nt	100	3	38	88
- CCOc1ccccc1NC(=O)NCc1ccc(F)cc1
    nt	i	1	111	6	-10	97
- O=C(Cc1cccs1)NCc1ccccc1
    -0.7	i	1.1	109	-1	-103	120
- Cc1sc2nc3c(C(=O)N4CCCC4)cc(C(=O)c4ccccc4O)cn3c(=O)c2c1C
    nt	i	0.89	99	6	nt	nt
- O=C(Cn1cccc1C(=O)c1ccccc1)NCc1ccccc1
    -2.1	i	0.86	103	6	1	101
- CCC(=O)Nc1ccc2nc(C)n(CC(=O)Nc3ccccc3)c(=O)c2c1
    0.1	i	0.92	103	-19	nt	nt
- CC(C)NC(=O)c1cnc(Sc2ncc(C(F)(F)F)cc2Cl)n1C
    -4.4	i	1	113	-3	9	147
- O=C(CN1C(=O)c2ccccc2S1(=O)=O)NC1CCCC1
    -1.1	i	1.1	84	-18	-400	54
- CC(C)CC(NC(=O)CNC(=O)C1O[C@@H]2OC(C)(C)O[C@@H]2[C@H]2OC(C)(C)O[C@@H]12)C(=O)O (stereo partly drawn)
    nt	i	0.94	100	-2	nt	nt
- CC(=O)c1cccc(NC(=O)COc2cc3oc(=O)c(CC(C)O)c(C)c3cc2Cl)c1 (stereo not drawn)
    0.0	i	0.78	94	2	nt	nt
- COc1ccc(NC(=O)CSCC(=O)N2c3ccccc3CCc3ccccc32)cc1
    0.1	i	0.94	51	2	-37	85
- Cc1cccnc1NC(=O)C(C)N1C(=O)c2ccccc2C1=O (stereo not drawn)
    nt	i	0.83	100	nt	nt	nt
- Cc1nc2ncnn2c(C)c1Cc1cccc(F)c1
    nt	i	0.89	109	-8	-26	129
- CCOC(=O)CSc1nnc(-c2cccc(Br)c2)o1
    1.1	i	0.96	98	-5	-43	119
- COC(=O)CNC(=O)COC(=O)c1cc(F)c(F)cc1Cl
    -1.2	i	0.74	103	-4	22	138
- COc1ccccc1C(=O)NC(=S)/C=C1/N(C)c2ccccc2C1(C)C
    -1.7	i	1	109	-18	32	111
- CC(=O)Nc1ccc(S(=O)(=O)Nc2ccc(N3CCOCC3)cc2)cc1
    -0.9	i	0.98	104	-3	nt	nt
- COc1ccc(N(C(=O)c2ccc(Br)o2)C2C=CS(=O)(=O)C2)cc1 (stereo not drawn)
    -0.8	i	1.1	102	2	nt	nt
- CCOC(=O)/C(C#N)=C/c1c(N2CCN(Cc3ccc4c(c3)OCO4)CC2)nc2c(C)cccn2c1=O
    nt	i	0.93	97	nt	nt	nt

# Three of these compounds, set out differently:
mol | GALR2 ag | HSV augment | HSV augment primary fold | RGS16-Gao HTS | PKD1 inh | INS promoter inh | INS promoter inh cell count
CC(=O)c1cccc(NC(=O)COc2cc3oc(=O)c(CC(C)O)c(C)c3cc2Cl)c1 (stereo not drawn) | 0.0 | i | 0.78 | 94 | 2 | nt | nt
Cc1nc2ncnn2c(C)c1Cc1cccc(F)c1 | nt | i | 0.89 | 109 | -8 | -26 | 129
O=C(Cn1cccc1C(=O)c1ccccc1)NCc1ccccc1 | -2.1 | i | 0.86 | 103 | 6 | 1 | 101

# Sorted by value in PKD1 inh (ascending): seven of the compounds above.
canonical_smiles,GALR2 ag,HSV augment primary fold,RGS16-Gao HTS,PKD1 inh
O=C(c1cccs1)N(CC1CCCO1)c1nc(-c2ccccc2)cs1 (stereo not drawn),-2.6,0.86,101,-13
Cc1nc2ncnn2c(C)c1Cc1cccc(F)c1,nt,0.89,109,-8
CCOC(=O)CSc1nnc(-c2cccc(Br)c2)o1,1.1,0.96,98,-5
O=C(CC1NCCc2ccccc21)Nc1ccc(Cl)cc1 (stereo not drawn),nt,0.96,106,0
COc1ccc(NC(=O)CSCC(=O)N2c3ccccc3CCc3ccccc32)cc1,0.1,0.94,51,2
COC(CNC(=O)c1cc(-c2ccncc2)nc2ccc(S(=O)(=O)N3CCOCC3)cc12)OC,nt,0.99,101,5
O=C(Cn1cccc1C(=O)c1ccccc1)NCc1ccccc1,-2.1,0.86,103,6

# (continued)
# Results follow in this order: GALR2 ag	HSV augment	HSV augment primary fold	RGS16-Gao HTS	PKD1 inh	INS promoter inh	INS promoter inh cell count
- Cc1nn(-c2ccccn2)c(N)c1N=O
    nt	i	0.98	103	nt	nt	nt
- CCN(CC)c1ccc(NC(=O)CSc2nc3ccccc3c(=O)[nH]2)cc1
    0.4	i	0.94	104	-9	-4	70
- N#CC1=C(SCC(=O)Nc2nccs2)NC(=O)CC1c1ccccc1 (stereo not drawn)
    -0.3	i	0.89	100	-4	45	84
- OCCC1CN(Cc2ccccc2-c2ccco2)CCN1Cc1ccccc1 (stereo not drawn)
    nt	i	1.1	102	0	nt	nt
- COc1ccc(CCNC(=O)c2cc(S(=O)(=O)N(C)c3ccccc3)ccc2Cl)cc1
    -0.2	i	0.9	97	1	-47	66
- O=C1SC(SCc2ccccc2)=N/C1=C\c1ccco1
    -2.0	i	1.1	102	-9	31	111
- Cc1ccc(NCc2ccccc2O)c(C)c1
    nt	i	0.93	102	-6	-83	144
- COc1cc2c(C)nc(C)c(C#N)c2cc1OC
    0.7	i	0.83	102	-2	-43	99
- Cn1c(N)c(C(=O)CSc2nc3ccccc3c(=O)n2CCCN2CCOCC2)c(=O)n(C)c1=O
    nt	i	0.97	107	-5	9	108
- COc1ccc(C(=O)OCC(=O)Nc2cc(S(=O)(=O)N3CCOCC3)ccc2N2CCCC2)cc1
    nt	i	0.97	105	8	nt	nt
- Cc1nc(-c2cccc(C(F)(F)F)c2)sc1C(=O)O
    nt	i	0.93	98	1	-71	125
- CN(c1ccccc1)S(=O)(=O)c1ccc(C(=O)OCC(=O)NCc2ccco2)cc1
    -1.9	i	1.1	95	0	-23	78
- Cc1ccc2nc(C3CCN(CC(=O)N4CCCCCC4)CC3)[nH]c2c1
    -2.1	i	0.88	113	4	17	83
- Cc1ccccc1-n1nc(C(=O)O)c(C)c(C#N)c1=O
    -1.7	i	0.81	120	-5	-4	80
- CCOc1cc(N2CCOCC2)c(OCC)cc1NC(=O)C(NC(=O)c1ccco1)C(C)C (stereo not drawn)
    -1.1	i	1	107	4	-23	44
- OC1(c2ccccc2F)CCN(Cc2nnc(-c3ccccc3)o2)CC1
    -1.1	i	0.89	108	8	nt	nt
- NC1=NC(=O)C2(COC(c3ccncc3)OC2)S1 (stereo not drawn)
    nt	i	0.91	105	3	-9	99
- N#CCC(=O)Nn1c(=S)[nH]c2ccccc2c1=O
    nt	i	0.93	96	-1	20	86
- Cc1cccc(C(=O)Nc2nccs2)c1[N+](=O)[O-]
    -2.6	i	1	50	0	4	124
- Cc1ccc2c(Cl)c(C)c(N3CCCC3)nc2n1
    0.3	i	0.94	103	13	77*	144*
- CCCn1nc(C(=O)OCC(=O)c2ccc3c(c2)NC(=O)CO3)c2ccccc2c1=O
    -1.5	i	0.97	nt	-15	19	125
- Cc1nnc(SCC(=O)Nc2nccs2)s1
    -0.2	i	1	102	-1	0	116
- COC(=O)CNc1cccc(C(F)(F)F)c1
    nt	i	0.96	97	0	nt	nt
- CCN=C1SC(C(N)=O)CC(=O)N1CC (stereo not drawn)
    -1.0	i	0.9	103	7	-12	125
- Cc1cc(C)cc(-n2nnnc2SCC(=O)Nc2nc(-c3ccc(F)cc3)cs2)c1
    -1.9	i	0.76	100	-10	32	48
- CC(C)(C)OC(=O)N1CCC(C(=O)N2CCCCCC2)CC1
    -1.4	i	0.93	101	10	19	117
- Cn1ncc(Br)c1NC(=O)Nc1ccc(OC(F)(F)F)cc1
    nt	i	1	99	nt	nt	nt
- O=C(Nc1ccc(N2CCCCC2)c(C(=O)O)c1)c1ccco1
    -4.4	i	0.97	102	1	-234	120
- CCc1n[nH]c(=S)n1/N=C/c1ccc(NC(C)=O)cc1
    nt	i	0.93	97	1	nt	nt
- Nc1scc(-c2ccncc2)c1Cl
    -1.1	i	0.91	99	1	-24	130
- COc1ccc(-n2cnc3cc(NS(=O)(=O)c4ccccc4)ccc32)cc1
    -1.2	i	1.1	110	-5	-12	78
- COc1ccc(C2CC(c3cccc(C)c3)n3ncnc3N2)cc1 (stereo not drawn)
    -2.2	i	0.92	71	0	nt	nt
- CC1CCN(S(=O)(=O)N2CCC(C(=O)NC3CCCC3)CC2)CC1
    nt	i	0.88	102	-3	36	109
- Cc1ccccc1CN(C)CCc1ccccn1
    nt	i	1	101	8	23	146
- Cc1ccc(S(=O)(=O)NC(=O)Nc2ccc(OC(F)F)cc2)cc1
    nt	i	0.96	94	nt	nt	nt
- Brc1c(CSc2nc3ccccc3o2)nc2ncccn12
    -1.2	i	0.78	98	-3	-7	108
- CCCCOc1ccc(C(=O)N2CCCC2)cc1
    0.0	i	0.85	90	17	-10	102
- O=C(NC(=S)NC1CCCC1)c1ccccc1Br
    -0.4	i	1	101	-6	nt	nt
- CCCN(CCC)c1nc(Cl)nc(NCCN2CCOCC2)n1
    nt	i	0.87	108	-1	-75	103
- CN(C)C(=O)c1c2c(nc3ccccc13)-c1ccccc1CC2
    -2.4	i	1	103	-4	nt	nt
- O=[N+]([O-])c1ccc(/C=N/n2c(-c3cccnc3)n[nH]c2=S)cc1
    0.6	i	0.96	100	-2	nt	nt
- O=C(CN1CCOCC1)Nc1ccccc1Cl
    -1.3	i	0.75	103	0	4	111
- O=C(COC(=O)c1ccccc1Nc1ccccc1F)c1ccccc1
    nt	i	0.98	98	nt	nt	nt
